Source: PubChem BioAssay
CtBP-E1A inh: blocks the CtBP interaction with E1A; AlphaScreen GST-E1A/His-CtBP binding, 1536-well; active compounds read low; control for the full effect not named in the record; activity change, % (test concentration not listed); 340,000 compounds, 0.49% hits; in the data active means activity change below about -65%; inconclusive means about -30% to -65%; inactive means above about -30%; also: % is scaled to controls: 0 for no effect and ±100 for the full control effect
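GST-E1A and His-tagged CtBP (125 nM each as 5X stock) were preincubated with pin-transferred compound for 2 h at 37 °C in the dark, then glutathione donor and nickel acceptor beads were added for 1 h before AlphaScreen reading.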
TRPML1 inh: blocks the human TRPML1 channel. Q9GZU1. TRPML1-inducible cells, Ca2+ dye fluorescence, FDSS; active compounds read low; inhibition of EC80 agonist-evoked calcium signal. activity change, negative = inhibition, % (no concentration beside the values). 390,000 compounds, 0.02% hits; in the data active means activity change below about -50%; inconclusive means about -30% to -50%; inactive means above about -30%;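 also: stimulus is agonist 54-4 at its EC80 concentration; % is scaled to controls: 0 for no effect and ±100 for the full control effect; compound concentration not given in the record; the text of the record puts the active cut at -80%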
Target sequence (Q9GZU1 whole entry, looked up): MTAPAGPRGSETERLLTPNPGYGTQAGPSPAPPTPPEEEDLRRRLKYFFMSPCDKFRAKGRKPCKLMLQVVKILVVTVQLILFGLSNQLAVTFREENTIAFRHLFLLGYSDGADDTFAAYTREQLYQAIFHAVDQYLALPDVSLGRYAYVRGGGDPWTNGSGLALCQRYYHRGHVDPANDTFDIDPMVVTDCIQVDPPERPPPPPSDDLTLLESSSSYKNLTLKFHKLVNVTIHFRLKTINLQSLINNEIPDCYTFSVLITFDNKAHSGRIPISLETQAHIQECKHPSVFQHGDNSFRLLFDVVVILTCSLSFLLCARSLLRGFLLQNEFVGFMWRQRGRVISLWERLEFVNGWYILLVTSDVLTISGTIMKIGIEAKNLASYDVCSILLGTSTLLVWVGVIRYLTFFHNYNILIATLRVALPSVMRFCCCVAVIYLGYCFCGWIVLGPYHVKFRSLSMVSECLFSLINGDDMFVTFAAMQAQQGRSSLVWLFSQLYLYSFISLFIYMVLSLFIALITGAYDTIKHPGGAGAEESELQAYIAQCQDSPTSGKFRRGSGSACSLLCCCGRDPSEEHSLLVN
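Calcium fluorescence in TRPML1-DL cells induced overnight with Tet: a 110 s read after compound pin addition, then a 110 s antagonist read after challenge with 54-4 at 4 uM final (EC80).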
D2 PAM: potentiates the human D2 dopamine receptor allosterically. 360,000 compounds, 0.23% hits. potentiation, % (concentration not given with the values). DiscoveRx D2 beta-arrestin cells, luminescence, 90 min; 100% = 57 uM dopamine signal. P14416; active = potentiation of 50% or more; inconclusive = 30% to 50%; inactive = 30% or less;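 also: tested on top of an EC20 dose of dopamine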
Target sequence (P14416 whole entry, looked up): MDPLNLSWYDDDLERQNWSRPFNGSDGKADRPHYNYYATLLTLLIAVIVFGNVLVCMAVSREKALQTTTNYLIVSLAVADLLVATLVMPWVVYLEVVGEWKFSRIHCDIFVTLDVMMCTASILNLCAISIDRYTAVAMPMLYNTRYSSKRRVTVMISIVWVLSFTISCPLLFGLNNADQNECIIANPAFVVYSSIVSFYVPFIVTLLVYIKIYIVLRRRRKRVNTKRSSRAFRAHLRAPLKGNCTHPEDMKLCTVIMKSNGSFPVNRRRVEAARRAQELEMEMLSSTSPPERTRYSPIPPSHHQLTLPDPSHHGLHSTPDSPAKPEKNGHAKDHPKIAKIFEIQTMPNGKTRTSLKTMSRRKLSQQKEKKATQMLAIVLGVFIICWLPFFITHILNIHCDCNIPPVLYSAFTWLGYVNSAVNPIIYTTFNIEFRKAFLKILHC
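PathHunter beta-arrestin assay in DiscoveRx D2 cells. Compounds were added with an EC20 of dopamine (50 nM final) for 90 min at 37 deg C. Luminescence was read 1 h after detection reagent, with 57 uM dopamine as the EC100 control.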
Six1-Eya2 blk: inhibitors of human Six1/Eya2 interaction | Q15475+O00167 | AlphaScreen GST-Six1/His-Eya2 binding, biochemical; active compounds read low; control for the full effect not named in the record | activity change, % (test concentration not listed) | 360,000 compounds, 0.56% hits | AID 651725; in the data active = activity change below about -65%; inconclusive = about -30% to -65%; inactive = above about -30%; also: % is scaled to controls: 0 for no effect and ±100 for the full control effect
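AlphaScreen with GST-Six1 and His-Eya2 (5X mix: 250 nM and 500 nM), glutathione donor and nickel acceptor beads; buffer 50 mM Tris pH 8.0, 300 mM NaCl, 1 mM TCEP; 1 h at 37 C in the dark.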
TRPML1 ag: human mucolipin-1 channel agonism; Q9GZU1; TRPML1-expressing cells, Ca2+ dye fluorescence, FDSS; host cell line not named in the record; reference of the full effect not given here; activation, % (no concentration beside the values); 410,000 compounds, 0.12% hits; in the data active = activation above about 50%; inconclusive = about 30% to 50%; inactive = below about 30%; also: 0% is about no effect; the text of the record puts the active cut at 80%
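Calcium fluorescence on an FDSS kinetic reader gave the read-out. Tet-induced TRPML1-DL cells were plated overnight, dye-loaded (Ca8 with quencher, 45-90 min, room temperature, dark), then read 110 s after compound addition, and again 110 s after 4uM final 54-4 (EC80).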
TRPV1 potentiator: enhances activation of the human vanilloid receptor TRPV1; TRPV1-expressing cells, Fluo-8 calcium influx, capsaicin EC20 potentiation; host cell line not named in the record; control for the full effect not named in the record; potentiation, % at 8.33 µM; 320,000 compounds, 0.02% hits; active means potentiation above 80%; inconclusive means 30% to 80%; inactive means below 30%; also: 0% is about no effect
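TRPV1-expressing cells were cultured overnight at 35.5C and loaded with Fluo-8 calcium dye for 40 to 90 min at room temperature. After a 10 s baseline, compound was added and calcium influx was read kinetically for 3 min (ex 480/em 520 nm).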
Active calls of the source: *; ? = inconclusive; . = no result given; & = joins results of further samples. This is a subset; count on the stated rates, not on these rows.

Compound	TRPML1 inh	TRPML1 ag	CtBP-E1A inh	Six1-Eya2 blk	TRPV1 potentiator	D2 PAM
CCN(CC)C(=O)c1ccc(NC(=O)CCCSc2ccccc2)cc1	25.2	1.2	-8.8	8.4	3.9	5.8
CC(=O)O[C@@]12CO[C@@H]1C[C@H](O)[C@@]1(C)C(=O)[C@H](O)C3=C(C)[C@@H](OC(=O)[C@H](O)[C@@H](NC(=O)c4ccccc4)c4ccccc4)C[C@@](O)([C@@H](OC(=O)c4ccccc4)C12)C3(C)C (stereo partly drawn)	45.3	0.3	2.2	-0.6	-13.5	-4.1
CCOC(=O)[C@]12Cc3cc(Cl)ccc3[C@H]1N(Cc1ccccc1)C(=O)c1cc(OC)ccc12	.	0.0	-0.5	-8.4	.	.
Cc1cc(C)nc(NS(=O)(=O)c2ccc(N=Cc3c(O)n(C)c(=O)n(C)c3=O)cc2)n1	12.6	0.3	-6.4	5.3	6.0	-6.4
CNCCc1ccc(OC)c(OC)c1	-7.1	0.0	-0.4	2.5	-8.2	-4.0
O=C(O)Cn1cc(C=C2C(=O)NC(=O)NC2=O)c2ccccc21	-5.0	2.2	-10.7	-3.4	0.9	-9.6
Cc1nnc2ccc(N3CCN(C)CC3)nn12	27.6	1.0	-21.1	14.4	1.4	-8.2
CC(C)CCC1(CCO)C(=O)NC(=S)NC1=O	-19.3	-1.1	0.0	-4.2	.	-6.9
COC(=O)C1=C(c2cccc(OC)c2OC)C[C@@H]2CC[C@H]1N2C	7.0	-0.2	2.8	0.4	2.7	-3.0
COc1cc2c(cc1OC)C(c1c(O)n(CCc3ccccc3)c(=S)[nH]c1=O)NCC2 (stereo not drawn)	-8.4	0.1	-24.4	-14.6	4.4	0.2
CC(=O)N1N=C(c2cccnc2)OC1c1ccccc1Cl (stereo not drawn)	-12.0	0.4	1.9	-3.9	-19.7	-10.4
O=c1c2ccccc2nc(/C=C/c2ccc(F)cc2)n1-c1ccccc1O	-0.5	0.4	-12.0	-0.3	-13.2	-1.8
CCN(CC)c1ccc(/C=N/c2sc3c(c2C#N)C2CCN3CC2)c(O)c1	-5.1	?	1.4	-9.3	18.5	-35.4
Cc1ccc(N)cc1C	4.1	-0.6	3.3	1.3	.	-0.9
O=C(N1CCCCCC1)N1CC1	-4.6	0.7	-1.4	18.6	.	-26.9

Quoted at random: 4 records from the list
Compound	TRPML1 inh	TRPML1 ag	CtBP-E1A inh	Six1-Eya2 blk	TRPV1 potentiator	D2 PAM
CCOC(=O)[C@]12Cc3cc(Cl)ccc3[C@H]1N(Cc1ccccc1)C(=O)c1cc(OC)ccc12	.	0.0	-0.5	-8.4	.	.
Cc1ccc(N)cc1C	4.1	-0.6	3.3	1.3	.	-0.9
CC(C)CCC1(CCO)C(=O)NC(=S)NC1=O	-19.3	-1.1	0.0	-4.2	.	-6.9
CCN(CC)c1ccc(/C=N/c2sc3c(c2C#N)C2CCN3CC2)c(O)c1	-5.1	?	1.4	-9.3	18.5	-35.4

More entries.
Compound	TRPML1 inh	TRPML1 ag	CtBP-E1A inh	Six1-Eya2 blk	TRPV1 potentiator	D2 PAM
O=c1[nH]c(=S)[nH]c(O)c1N=Nc1ccc(OC(F)F)cc1	2.6	-0.2	-14.0	-9.6	0.6	-10.2
CC(C)CC1C(C#N)=C(N)Oc2c1c(=O)oc1ccccc21 (stereo not drawn)	-1.9	0.2	10.2	0.1	6.0	-4.7
O=C1NCN(c2ccccc2)C12CCN(C(c1cccs1)c1nnnn1C1CCCCC1)CC2 (stereo not drawn)	.	-0.6	-7.0	-13.5	.	-10.0
CCCN(CCC)C1Cc2cc(OC)c(OC)cc2C1	-9.1	0.9	-0.3	-0.4	.	-37.2
CCCCn1c(O)c(C=NC2CC3CCC2(C)C3(C)C)c(=O)[nH]c1=O (stereo not drawn)	-13.2	2.2	-1.5	-0.2	-17.5	-16.0
CCCCCn1c(=O)c(C(=O)Nc2cc(C)ccn2)c(O)c2ccccc21	9.5	-0.1	6.1	11.9	-15.8	-1.3
CCC(=NCCN1CCOCC1)c1c(O)n(C2CCCCC2)c(=O)[nH]c1=O	14.7	0.2	-8.6	-6.3	7.4	-8.2
c1cc2c(cc1[C@H]1OC[C@H]3[C@@H]1CO[C@@H]3c1ccc3c(c1)OCO3)OCO2	5.2	-0.5	-5.4	-4.6	16.5	-4.6
CCC(=NCc1ccc2c(c1)OCO2)c1c(O)n(C)c(=O)n(C)c1=O	3.5	1.6	?	?	-1.4	8.3
COc1ccc(-c2ccc3c(c2)CN(C(=S)NCCc2ccccc2)Cc2cnnn2-3)cc1	.	-0.8	-1.8	-13.2	.	5.1
COC(=O)C1=C(c2ccc(OC(F)(F)F)cc2)C[C@@H]2CC[C@H]1N2C(=O)N1CCCCC1	8.5	0.9	2.2	0.2	-15.6	-8.7
Cc1c(C(=O)Nc2ccccc2)c2cc(O)ccc2n1Cc1ccccc1	17.7	-0.2	-0.6	-16.6	-2.0	-7.6
COc1ccc(-c2nn(CCC#N)cc2C(=O)Nc2ccccc2Cl)cc1	5.4	0.6	2.9	2.6	-11.4	2.6
CC1CCCCC12C(=O)NC(=O)NC2=O (stereo not drawn)	-10.0	0.4	-17.6	6.1	.	-14.8
Cc1ccc(N2C(=O)NC(=O)/C(=C\c3cn(CC(=O)O)c4ccccc34)C2=O)cc1	10.1	0.7	7.5	-0.2	-0.6	-3.2
CC(=O)[C@@]1(O)CCC2C3CC=C4C[C@@H](O)CC[C@]4(C)C3CC[C@@]21C (stereo partly drawn)	2.7	0.2	1.7	-5.5	.	-8.1
COC(=O)c1ccc(-n2c(C)nc3ccccc3c2=O)cc1	-9.4	-0.7	10.6	3.4	19.6	0.5
O=C1NC(=O)N(c2ccc3c(c2)OCO3)C(=O)/C1=C/c1ccsc1	34.7	0.2	-6.3	6.5	-5.3	-3.0
Cc1cc([P+](=O)O)c(C)n1-c1ccc(Br)cc1	3.0	0.5	10.2	3.3	10.3	7.7
COC(=O)C1=C(c2cccc(OC)c2OC)C[C@@H]2CC[C@H]1N2C(=O)NCc1cccc2ccccc12	1.7	2.4	.	-7.0	.	2.7
COC(=O)C1=C(c2ccc(S(C)(=O)=O)cc2)C[C@@H]2CC[C@H]1N2C(=O)NCc1cccc2ccccc12	-7.9	-1.0	3.7	1.7	.	-7.2
COC(=O)C1=C(c2cccc(C#N)c2)C[C@@H]2CC[C@H]1N2C(=O)NCc1cc(C)oc1C(F)(F)F	-0.3	2.9	-26.3	15.8	-3.7	-7.2
CCN1CCN(C(=O)COc2ccc3c(c2)C(=O)CC2(CCN(C(C)=O)CC2)O3)CC1	-6.7	-0.2	-2.1	6.2	1.5	-2.6
Cc1cc(C)c(NC2=NCCCS2)c(C)c1	-9.1	-0.3	-1.2	3.2	7.1	-21.7
NC1=NC(=O)N2CC12 (stereo not drawn)	7.4	0.9	3.2	6.3	.	-3.8
CN1CCN(c2c(C#N)c(C(F)(F)F)nn2C)CC1	7.2	-0.3	4.4	-0.1	9.6	-5.7
NC(=O)CN1C2CCC1CC(NC(=O)C1CC1)C2 (stereo not drawn)	-13.3	-0.4	9.5	3.5	2.3	-3.3
COC(=O)C(O)(c1ccc(N(C)S(=O)(=O)c2ccccc2)cc1)C(F)(F)F (stereo not drawn)	54.7	1.2	-1.3	6.4	-3.9	2.2
COP(=O)(NC(=O)C(Cl)(Cl)Cl)OC	16.4	-0.3	.	3.9	2.0	-17.9
C[C@]12CC[C@H](O)CC1=CC(=O)C1C2CC[C@]2(C)C(=O)CCC12 (stereo partly drawn)	-0.4	-0.5	3.6	2.1	.	-1.1
COCCCn1c(N)c(C(=O)NCCC(C)C)c2nc3ccccc3nc21	23.3	0.7	28.6	55.6	-17.3	-4.1
COc1ccc(NC(=O)N2CCC3(CC2)OCCO3)cc1	1.3	1.9	2.0	2.3	4.3	-0.8
CN(C)CCN(CC1CCCN(Cc2ccccc2F)C1)C(=O)Cc1ccccc1F (stereo not drawn)	2.7	0.6	.	6.8	15.2	-38.6
COC(=O)c1ccc(N=C(c2ccccc2)c2c(O)n(C)c(=O)n(C)c2=O)cc1	-14.0	1.0	-16.8	-3.9	4.7	-4.7
O=C1CC(c2cccnc2)=NN1c1ccc(Cl)cc1Cl	-12.0	0.0	-25.5	-24.4	7.6	-11.6
CC12CC[C@H]3[C@@H](CCC4(O)C[C@H](O)CCC34/C=N/NC(=O)c3ccccc3F)C1(O)CCC2C1=CC(=O)OC1 (stereo partly drawn)	-6.9	-0.1	4.4	4.6	-5.1	5.8
Clc1ccc(Cn2ccnc2)cn1	20.7	0.0	10.1	43.7	2.6	-3.4
CCn1c(=N)n(Cc2ccccc2F)c2ccccc21	-14.0	0.6	-6.5	2.1	-4.1	-3.0
COc1ccccc1-n1c(-c2ccccc2F)nc2ccccc2c1=O	1.8	1.0	4.1	-1.7	.	-8.9
O=C1NCN(c2ccccc2)C12CCN(C(c1cc3ccccc3o1)c1nnnn1Cc1ccccc1)CC2 (stereo not drawn)	.	0.5	-15.1	-20.2	.	-3.0
CN1CCN(c2ccc([N+](=O)[O-])c(NCC3CCCO3)c2)CC1 (stereo not drawn)	12.2	0.2	11.3	-11.3	6.7	-40.0
CCCCn1c(N)c(C(=O)NCc2cccs2)c2nc3ccccc3nc21	8.9	0.3	4.4	9.0	-7.6	-11.4
C=Cc1cc(OC)c2c(c1)c(=O)oc1c2cc(OC)c2c(O)ccc(C3OC(C)C(O)C(C)(O)C3O)c21 (stereo not drawn)	-9.1	-0.3	-9.3	-13.0	.	3.7
CN(C)C(=O)On1c(-c2ccccc2)nc2ccc(Cl)cc21	-1.1	0.7	0.4	6.0	9.0	-14.2
COC(=O)C1=C(c2ccc(-c3ccccc3)c(F)c2)C[C@@H]2CC[C@H]1N2C(=O)NCc1cccc2ccccc12	12.8	-0.2	-15.5	-15.1	3.9	-15.6
O=P(NC(c1ccccc1)c1ccccc1)(Oc1ccccc1)Oc1ccccc1	2.8	4.3	-4.8	10.6	-5.2	11.0
O=C1NCN(c2ccccc2)C12CCN(C(c1cccc3ccccc13)c1nnnn1-c1ccc3c(c1)OCCO3)CC2 (stereo not drawn)	.	-0.9	-15.3	-14.0	.	-6.9
CSc1ccc(CN2CCN(C(=O)COc3ccc(C)cc3)CC2)cc1	1.5&-8.4	0.2&0.1	-12.5	-12.6	-15.4	-18.5
O=C1NC(=O)N(c2ccccc2)C(=O)/C1=C\c1ccc([N+](=O)[O-])s1	1.6	0.7	-27.9	?	?	11.1
CC1CCN(C(=O)c2ccc(N3CC4CC(C3)c3cccc(=O)n3C4)c([N+](=O)[O-])c2)CC1 (stereo not drawn)	14.8	0.6	-1.2	6.2	15.9	-10.4
